BJeLR lethal: MLPCN primary cell-based screen for lethality selective to Ras in HRASV12 cells; 0.17% of 300,000 active; AID 1554, 2009; BJeLR (HRASV12) viability, CellTiter-Glo ATP luminescence, 48 h; reference of the scale not given here; inhibition, % (no concentration beside the values);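 active means replicate mean above 50%; inconclusive means above 50% but judged a plate artefact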;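 further: 50 nL library stock added to about 25 µL; numbers are from one replicate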
Sa RN4220 lethal: growth inhibition of S. aureus RN4220, primary screen, OD600; 16 h; inhibition, % (no concentration beside the values); 0.33% of 330,000 active;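 active means z-score of -3 or lower and OD600 up to 0.18 on both plates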;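 further: plate controls were untreated cells for no effect and reference antibiotic for full effect; stock transfer was 100 nL into about 80 µL; one replicate is shown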
Autofluor counter: compound fluorescence in toxin protease inhibitor counterscreen; compound autofluorescence counterscreen, microsphere flow cytometry; hits give high values; fluorescence intensity (test concentration not listed); 3.1% of 360,000 active; AID 624483;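 active means at least 3 SD above the mean of all compounds, about 16000 in these data; inconclusive means too few beads counted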;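 further: 100 nL of 1 mM stock went into each well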
Mtb hypoxia inh: PubChem AID 1159583. M. tuberculosis hypoxia-regulated fluorescent reporter, fluorescence. fluorescence inhibition, % (test concentration not listed). 0.1% of 300,000 active;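 active means 35 to 45% if threefold the growth effect, above 45% if 1.5-fold the growth effect; inactive means the rest, general growth blockers included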;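 further: wells of about 50 µL received 100 nL stock; 0% = vehicle wells and 100% = reference inhibitor wells; whole bacteria with a GFP reporter of the hypoxia response; strong numbers were not always called active; many hits fall short of the cut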
PrP UTR inh: inhibition of PrP 5' UTR reporter expression; inhibition, % (concentration not given with the values); 0.35% of 340,000 active; cell-based PrP 5' UTR mRNA reporter, plate reader; AID 488862, 2010;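 active means every replicate at 50% or more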;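 further: 0 = median of the neutral control wells; tested in H4 reporter cells; numbers are from one replicate; inactives centre near -14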
ugtP null kill: growth inhibition of ugtP-null S. aureus, primary screen, RN4220 ugtP deletion, OD600 | 0.54% of 330,000 active | 16 h; some inactives read as strong as hits | growth inhibition, % (test concentration not listed);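 active means z-score under -3 and OD600 up to 0.15 on both plates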;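 further: plate controls were untreated wells for no effect and antibiotic for full effect; wells of about 80 µL received 100 nL stock; the first replicate is given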
Mtb hypoxia inh growth: second read-out of Mtb hypoxia inh, no call of its own (marks repeat the call); growth inhibition, %; measured here: M. tuberculosis growth (absorbance);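 0% = vehicle and 100% = reference antibiotic; read after six days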
* marks the source's active call; other numbers are inactive results; ? = inconclusive; . = not tested or not shown.

smiles	BJeLR lethal	Sa RN4220 lethal	Autofluor counter	Mtb hypoxia inh	Mtb hypoxia inh growth	PrP UTR inh	ugtP null kill
CC(OC(=O)c1ccc(C#N)cc1)C(=O)Nc1ccc(Cl)cn1 (configuration not stated)	.	1.5	3988	8	-3	7	3
COc1ccc(/C=N/NC(=O)c2nc(-c3ccccc3)cc(-c3ccccc3)n2)cc1O	0	.	2654	.	.	-8	.
Cc1ccc(C(=O)CCCn2nnc(-c3cccnc3)n2)cc1C	4	4.4	3691	5	7	-17	4
O=C(COc1ccc(F)cc1)N1CCC(Cc2ccccc2)CC1	6	3.2	5263	5	6	0	13
O=C(Nc1ccc(N2CCCC2)cc1)c1cc([N+](=O)[O-])ccc1N1CCOCC1	3	4.5	5057	-2	-1	-3	3
Cc1ccc(/C(O)=C2/C(=O)C(=O)N(CCN3CCOCC3)C2c2cccnc2)cc1 (configuration not stated)	0	1.5	9798	-7	-5	-7	-4
Cn1c(=O)c2c(ncn2CCc2ccccc2)n(C)c1=O	3	0.4	1883	8	0	-2	4
O=C(CCNC(=O)OCc1ccccc1)NC1CCCCCC1	2	4.5	2098	10	2	-27	7
CC(Oc1ccccc1)C(=O)N1CCC2(CC1)CC(=O)c1ccccc1O2 (configuration not stated)	7	5.4	?	4	6	-3	7
COc1ccccc1NC(=O)CN(Cc1ccco1)C(=O)c1cc2ccccc2o1	-14	-3.4	4489	4	9	-10	17
CCOC(=O)C(C)Sc1nnc(Cc2cc(=O)[nH]c(=O)[nH]2)n1-c1ccc(OCC)cc1 (configuration not stated)	.	1.1	5446	.	.	-3	7
Cc1ccc(CSc2ncn(-c3ccccc3)n2)cc1	3	11	24543*	2	7	-49	-19
CN(C)C=Nc1nc2nccc(-c3ccc(Cl)cc3)n2n1	.	1.0	.	5	-6	.	-12
O=C1C2C3C=CC(O3)C2C(=O)N1N=Cc1cccc2ccccc12 (configuration not stated)	.	4.5	3819	19	7	-28	-6
COc1ccc(O)c(C(=O)c2cnn(C(=O)c3cccc(S(=O)(=O)N(C)C)c3)c2)c1	.	-0.1	3442	14	10	-16	2
Cc1nnc(NN=CC(C)c2ccccc2)[nH]c1=O (configuration not stated)	.	0.4	.	-5	5	.	-4
O=C(CSc1nnc(CNC(=O)c2ccccc2)o1)c1ccccc1	4	1.8	4751	8	-5	-15	9
CCc1ccc(NC(=O)CSc2nc3ncc(Br)cc3[nH]2)cc1	-8	6.9	5762	1	-1	-2	0
CCOC(=O)C1=C(C)N=c2s/c(=C\c3ccc(C(=O)O)cc3)c(=O)n2C1c1ccc(OC)cc1OC (configuration not stated)	-11	.	3112	.	.	-13	.
COc1cc(C=NNC(=O)c2cccc(S(=O)(=O)N3CCCCC3)c2)cc(Br)c1O	.	-11	.	-13	-3	.	-6
Cc1cccc(CC(=O)Nc2sc(C(C)C)cc2C(=O)N2CCOCC2)c1	2	2.1	4798	9	1	3	7
CCCCn1c(=O)[nH]c(=O)c2c1nc(-c1cc(Br)c(OCC)c(OC)c1)n2C	-6	-0.7	5280	-10	-2	-21	1
O=C(O)CSCC(=O)N1CCN(c2nc3cc(Cl)ccc3s2)CC1	1	4.7	3730	8	-1	-23	6
O=C(CSC1=NC(=O)C(Cc2ccccc2)C(=O)N1)NC1CCCCC1 (configuration not stated)	4	6.7	6060	6	4	-35	3
COCCCNC(=S)NNC(=O)C(O)(c1ccccc1)c1ccccc1	-3	0.7	3386	4	-4	-9	3
CCCCN=c1scc(-c2ccc3c(c2)NC(=O)CO3)n1N=C1CCCC1	11	1.6	10599	2	12	-21	-12
Cc1ccc(-n2nnnc2CNC(=O)c2ccc3c(c2)OCO3)cc1C	-8	0.2	5121	3	7	-10	2
O=C(CSc1ccccc1)Nc1ccc(NC(=O)c2ccco2)cc1	-7	-2.4	9192	-6	3	-33	-7
COc1ccc(-c2nnc(SCC(=O)NNC(=O)Cc3ccccc3)n2C)cc1OC	-3	3.2	2298	-4	2	-25	1
COc1ccc(C(C)(C)C)cc1NC(=O)COC(=O)CN1C(=O)NC2(CCCCC2C)C1=O (configuration not stated)	.	7.5	3547	21	14	-19	-2

Quoted from the entries so far (3 entries):
smiles	BJeLR lethal	Sa RN4220 lethal	Autofluor counter	Mtb hypoxia inh	Mtb hypoxia inh growth	PrP UTR inh	ugtP null kill
O=C(CSc1ccccc1)Nc1ccc(NC(=O)c2ccco2)cc1	-7	-2.4	9192	-6	3	-33	-7
COc1ccc(-c2nnc(SCC(=O)NNC(=O)Cc3ccccc3)n2C)cc1OC	-3	3.2	2298	-4	2	-25	1
COc1ccc(C(C)(C)C)cc1NC(=O)COC(=O)CN1C(=O)NC2(CCCCC2C)C1=O (configuration not stated)	.	7.5	3547	21	14	-19	-2

Continuation:
smiles	BJeLR lethal	Sa RN4220 lethal	Autofluor counter	Mtb hypoxia inh	Mtb hypoxia inh growth	PrP UTR inh	ugtP null kill
Cc1ccc2nc(-c3ccccc3)cc(C(=O)N3CC(C)OC(C)C3)c2c1 (configuration not stated)	19	0.1	5352	-3	-4	-3	5
CC(C)(C)NC(=S)NNC(=O)c1cccc(Br)c1	4	3.4	4069	0	2	-41	-3
Cc1ccccc1-n1c(Cc2cccs2)n[nH]c1=S	-3	4.0	7990	10	2	-18	0
N/C(=N\OC(=O)c1ccc(Cl)cc1[N+](=O)[O-])c1cccnc1	12	.	6064	.	.	-63	.
O=C(OCc1nc2ccccc2[nH]1)C12CC3CC(CC(C3)C1)C2	-15	-0.4	17109*	15	-1	4	6
COC(=O)C1=C(NC(=O)COc2ccc(Cl)cc2Cl)CCS1	-12	10	2552	0	5	-29	3
CS(=O)(=O)N(CC(=O)N1CCC(C(N)=O)CC1)c1ccc(Oc2ccccc2)cc1	1	1.5	2980	3	7	-4	10
Cc1cc(C)n2nc(C(=O)Nc3c(C)nn(Cc4ccc(F)cc4)c3C)cc2n1	1	2.6	4003	0	6	-14	20
COC(=O)c1ccc(-c2ccc(/C=N/NC(=O)CC3(C)OCCCO3)o2)cc1	-6	.	4156	.	.	-14	.
Cc1sc2ncn(C(C)C(=O)OC3CCCCC3)c(=O)c2c1C (configuration not stated)	2	4.3	3930	5	7	-16	6
O=C1NC(c2ccccc2Br)=N/C1=C\c1ccco1	5	2.3	6142	10	6	-94	-1
CC(Cc1ccccc1)N/C=C1/CC(=O)NC1=O (configuration not stated)	-4	7.7	5264	-2	8	-9	-9
Cc1c(Cl)cccc1NC(=S)NCc1ccccc1Cl	-6	-5.9	2008	-2	4	-20	-13
CCCCOc1ccc(C(=O)Oc2ccc(C)nc2)cc1	3	-2.1	10901	5	3	-3	-13
CCCc1ccc(Oc2cc(N3CCOCC3)nc(-c3ccccc3)n2)cc1	.	-12	23308*	5	8	-26	89*
O=[N+]([O-])c1ccc2c(c1)nc1n2CCN(C2CCCCC2)C1	0	-4.2	4129	4	5	-74	1
O=C(CNS(=O)(=O)c1ccccc1)Nc1ccc(F)cc1F	-6	0.8	6255	-1	16	1	0
CCc1cccc2c(=O)c(C(=O)N3CCOCC3)c[nH]c12	-2	7.0	9067	0	11	-11	-2
CCOCCCNS(=O)(=O)c1ccc(Br)cc1	-16	5.7	6516	3	6	4	11
CCCn1c(=S)[nH]c2cc(OC)c(OC)cc2c1=O	-12	3.9	22976*	1	3	5	30
COc1ccc(N(Cc2ccccc2)C(=O)OC(C)(C)C)c(C(=O)N(C)OC)c1	.	2.9	3915	-13	-6	1	-6
O=c1c(N2CCOCC2)coc2ccccc12	-5	4.4	2424	15	6	0	6
CN(C(=O)c1cccc(NC(=O)Cc2cccc(NC(=O)C3CCCN(C(=O)C4CC4)C3)c2)c1)C1CC1 (configuration not stated)	.	3.3	3940	6	8	-19	8
CCOC(=O)Cc1nnc(NC(=O)C2CCCCC2)s1	-11	3.8	2212	4	8	-22	7
CC(C)c1ccc(NC(=O)N2CCOCC2)cc1	4	-1.4	3693	-2	6	-32	8
O=C(NC1CCCCCC1)c1ccc(Br)o1	-16	1.3	3656	.	.	-7	-4
Cc1ccc(-c2nnn(CC(=O)N(CC3CCCO3)C(C(=O)NC3CCCC3)c3ccc(F)cc3)n2)o1 (configuration not stated)	2	3.2	3538	5	6	-19	3
CC1CN(C(C)CO)C(=O)c2cccc(NC(=O)c3ccc(-c4nccs4)cc3)c2OC1CN(C)C(=O)Nc1cccc2ccccc12 (configuration not stated)	.	-3.9	.	-9	0	.	-3
CCCC1(CCC)NC(=O)NC1=O	-5	2.8	2927	5	10	-8	-1
O=C(c1cc(COc2ccc(F)cc2F)on1)N1CCOCC1	7	0.9	6232	8	5	-36	-1

Compound profiles, as listed above. Values in the order: BJeLR lethal, Sa RN4220 lethal, Autofluor counter, Mtb hypoxia inh, Mtb hypoxia inh growth, PrP UTR inh, ugtP null kill
Listed for `COc1ccc(C(C)(C)C)cc1NC(=O)COC(=O)CN1C(=O)NC2(CCCCC2C)C1=O` (configuration not stated) : ., 7.5, 3547, 21, 14, -19, -2
Listed for `Cc1ccc(C(=O)CCCn2nnc(-c3cccnc3)n2)cc1C` : 4, 4.4, 3691, 5, 7, -17, 4
Listed for `CCCC1(CCC)NC(=O)NC1=O` : -5, 2.8, 2927, 5, 10, -8, -1
Listed for `Cc1ccc(-c2nnn(CC(=O)N(CC3CCCO3)C(C(=O)NC3CCCC3)c3ccc(F)cc3)n2)o1` (configuration not stated) : 2, 3.2, 3538, 5, 6, -19, 3
Listed for `O=C(CSC1=NC(=O)C(Cc2ccccc2)C(=O)N1)NC1CCCCC1` (configuration not stated) : 4, 6.7, 6060, 6, 4, -35, 3

Next section.
smiles	BJeLR lethal	Sa RN4220 lethal	Autofluor counter	Mtb hypoxia inh	Mtb hypoxia inh growth	PrP UTR inh	ugtP null kill
O=C(CSc1ccccc1)NCC1(N2CCCCC2)CCCCC1	0	1.2	?	-1	1	-1	3
CC(=O)NC1CCCc2c1cnn2-c1ccc(C(C)(C)C)cc1 (configuration not stated)	-14	-2.8	4062	8	-1	-19	4
Cc1cc(NC(=O)C2CCCCC2)ccc1NC(=O)c1ccccc1Cl	2	3.8	2073	-2	-3	-27	5
CCN(c1ccccc1)S(=O)(=O)c1cccc(C(=O)NCCOc2ccccc2OC)c1	.	10	6771	4	0	-17	0
O=[N+]([O-])c1cccc(/C=N/Nc2nc(C(Cl)(Cl)Cl)nc3ccccc23)c1	-11	.	2358	.	.	-15	.
O=C1NC(c2cccs2)Nc2ccccc21 (configuration not stated)	1	6.1	4685	.	.	-11	2
CC1CCc2[nH]c3ccc(C(=O)N(C)CC(=O)Nc4ccccc4Cl)cc3c2C1 (configuration not stated)	.	-2.8	?	4	4	-16	2
Cc1ccccc1OCc1nc(-c2cccnc2)no1	15	-5.1	4146	6	6	-28	3
COc1ccc(C(=O)Nc2cccc(S(C)(=O)=O)c2)cc1	2	3.2	2543	-7	-5	-10	6

High-throughput results from PubChem BioAssay.
